eIF4H inh = human eIF4H binding inhibitors, primary screen, translation initiation inhibitor project, biochemical, uHTS, fluorescence polarization | inhibition, % at 35 µM | eIF4H fluorescence polarization binding assay | Eukaryotic translation initiation factor 4H (Homo sapiens), Q15056 | 0.94% of 290,000 active | AID 2012, 2009;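 active means 50% or more with normal probe brightness, or confirmed in later tests; inconclusive means above 50% with abnormal brightness, or retests that disagree; inactive means below 50% or failed in later tests; about a fifth of its hits are not listed in these tables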;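 further: calls also rest on retests at 20 µM and on dose response follow-up; 0% = protein and probe with vehicle and 100% = probe without protein; strong numbers were not always called active; many hits fall short of the cut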
PABP FP inh = PABP poly(A) RNA binding inhibitors, primary screen, biochemical, fluorescence polarization, uHTS; Polyadenylate-binding protein 1 (Homo sapiens), P11940; inhibition, % at 35 µM; 1% of 290,000 active;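 active means 50% or more with normal probe brightness, or confirmed in later tests; inconclusive means above 50% with abnormal brightness, or retests that disagree; inactive means below 50% or failed in later tests; about a fifth of its hits are not listed in these tables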;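 further: calls also rest on retests at 20 µM and on dose response follow-up; controls were probe without protein and protein plus probe with vehicle; some compounds called inactive have numbers as strong as hits; many hits fall short of the cut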
Target sequence (P11940 whole entry, looked up): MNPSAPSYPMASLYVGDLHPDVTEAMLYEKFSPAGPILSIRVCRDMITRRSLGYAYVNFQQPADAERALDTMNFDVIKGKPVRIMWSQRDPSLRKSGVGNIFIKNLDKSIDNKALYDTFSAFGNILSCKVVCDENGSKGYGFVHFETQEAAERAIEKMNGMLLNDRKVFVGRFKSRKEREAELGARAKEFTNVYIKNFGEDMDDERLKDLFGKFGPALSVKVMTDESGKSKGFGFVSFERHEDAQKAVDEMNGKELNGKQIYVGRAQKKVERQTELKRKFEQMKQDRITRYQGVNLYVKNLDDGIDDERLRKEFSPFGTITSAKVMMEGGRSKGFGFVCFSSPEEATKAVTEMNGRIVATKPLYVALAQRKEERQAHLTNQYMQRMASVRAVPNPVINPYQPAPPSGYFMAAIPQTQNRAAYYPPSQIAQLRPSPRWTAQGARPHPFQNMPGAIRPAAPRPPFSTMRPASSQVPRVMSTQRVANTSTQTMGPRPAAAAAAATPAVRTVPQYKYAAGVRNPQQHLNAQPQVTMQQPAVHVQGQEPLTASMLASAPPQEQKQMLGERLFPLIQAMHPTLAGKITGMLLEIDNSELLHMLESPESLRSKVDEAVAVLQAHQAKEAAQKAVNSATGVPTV
CSC inhib = cancer stem cell viability inhibitors, primary screen, luminescence; cancer stem cell-like cells viability; inhibition, % at 7.5 µM; 1.1% of 300,000 active; AID 2717, 2010;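 active means mean at 75% or more and at least half the replicates too; inconclusive means mean and replicates disagree; tested in HMLE shEcad cells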;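 further: 0% = median of negative and 100% = median of positive control wells; the first replicate is given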
Env fusion inh = inhibitors of HIV-1 Env-driven cell-cell fusion, primary screen, HeLa-JRFL effector, CEM21 target cells, luciferase; 1.1% of 360,000 active; inhibition, % at 12.3 µM;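 active means mean replicate inhibition score of at least 50 and every replicate individually at or above 50; inconclusive means only one of the two criteria met; inactive means mean below 50 and not all replicates reaching 50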;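 further: 0% = plate neutral controls and 100% = maraviroc near 300 nM; one replicate is shown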
MT1-MMP act inh = blockers of MT1-MMP proenzyme processing, primary screen, HT1080 RFP-PRO-GFP cells, GFP/RFP fluorescence | GFP/RFP ratio fluorescence, overnight; percent of plate control window, DMSO zero | GFP/RFP ratio change, % at 20 µM | 0.061% of 360,000 active | AID 651647, 2012;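 active means GFP/RFP ratio change of at least 30% with cell ATP level not reduced by more than half and red fluorescence within 50% of control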; further: strong numbers were not always called active
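Test system: HT1080 RFP-PRO-GFP cells; Benchmarks: DMSO and RFP-L50D-GFP cell wells; Timing: cells overnight before dosing, compound overnight, 37 °C, 5% CO2; Compound: one 20 µM compound dose with 1% DMSO; Read-out: GFP/RFP fluorescence ratio.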
Yeast UUG start = modulators of yeast start codon fidelity, primary screen, whole organism, S. cerevisiae, single point, plate reader; S. cerevisiae UUG-firefly luciferase reporter, luminescence/redox ratio; activity score, % at 18.7 µM; 0.13% of 350,000 active;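 active means replicate mean at a twofold rise or more, about +100% in these data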;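 further: firefly luciferase made from a UUG start codon reports start codon fidelity; reporter light over untreated wells divided by growth signal over untreated wells; some hits fall short of that in this replicate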
Rce1 inh = yeast Rce1p protease inhibitors, primary screen, biochemical, fluorescence, cell-free homogeneous; CAAX prenyl protease 2 (Saccharomyces cerevisiae (strain ATCC 204508 / S288c)), Q03530; yeast membranes, quenched prenylated peptide cleavage fluorescence; calls only; 0.27% of 290,000 active;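 active means fall in fluorescence gain of 50% or more versus controls, with final raw signal at or below 3038400; inconclusive means same 50% fall but final raw signal above 3038400; inactive means fall in fluorescence gain under 50%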;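 further: plate controls were neutral control wells for no effect and wells lacking membranes for full effect; tested at 10 µM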
eIF4H inh retest = also measured in eIF4H inh; calls as there; inhibition, %; compound at 20 µM; confirmation average;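 mean of two retest wells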
PABP FP inh retest = second read-out of PABP FP inh, no call of its own (marks repeat the call); inhibition, %; compound at 20 µM; confirmation repeats;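 mean of two retest wells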
MT1-MMP act inh RFP = second read-out of MT1-MMP act inh, no call of its own (marks repeat the call); RFP signal change, %; measured here: RFP expression control read;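 0 = vehicle wells; hits needed this value within 50% of zero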
An asterisk follows results filed as active; i = inactive; ? = inconclusive; · = no result given; + = active, no number; & = joins results of further samples; [ ] = dose if it differs, or a comment. These rows are one share of the data; rates above refer to the full screens.

SMILES	eIF4H inh	PABP FP inh	CSC inhib	Env fusion inh	MT1-MMP act inh	MT1-MMP act inh RFP	Yeast UUG start	Rce1 inh	others
C[C@@H]1CN([C@H](C)CO)C(=O)CCCn2cc(nn2)CO[C@H]1CN(C)C(=O)Nc1ccccc1	·	·	·	3.7[16.7 µM]	0.9	-1.3	-1.3&4.1&-6.1	·
CC1Cc2ccccc2N1C(=O)c1cc2cccnc2n(C)c1=O (configuration not stated)	·	·	-13.1	-7.3	-1.8	3.6	0.5	i
CC1(C)Cc2c(c(N3CCOCC3)nc3sc4c(NCc5ccccc5)nnnc4c23)CS1	-3.2	-8.3	8.0	·	-0.8	-10.7	-0.4	i
Cc1ccc(S(=O)(=O)N2CCCC(C(=O)NCCc3ccc(S(N)(=O)=O)cc3)C2)cc1 (configuration not stated)	-9.4	4.3	19.4	0.0	-0.1	-0.9	-9.0	·
COC(=O)CSc1ncnc2c1cnn2-c1ccc(C)cc1C	-6.3	-17.8	8.0	1.9	-1.4	0.0	·	i
Brc1cccc(OCCSc2ncccn2)c1	-1.8	0.7	3.3	0.4	-2.8	-0.9	-4.3	i
O=C(Nc1ccc(OCC(=O)N2CCOCC2)cc1)c1cccc(Cl)c1	-7.7	-1.7	-4.8	-3.4	2.3	0.4	2.5	i
CSc1nc2c(c(=O)[nH]c(=O)n2C)n1C/C=C(\C)Cl	-11.1	-3.1	·	-18.8	8.6	6.4	-27.8	i
COc1ccc(-c2csc(Nc3ccc(O)cc3)n2)cc1	9.7	6.1	56.7	-28.9	-20.7	-13.5	-21.4	i
COc1cc2cc(CCOC(=O)N3CCCCC3)oc(=O)c2cc1OC	·	·	-11.7	-3.8	3.6	1.5	-10.3	·
O=C(Nc1cccc(-c2nc3ncccc3o2)c1)c1sc2ccccc2c1Cl	-12.1	-43.4	·	9.6	6.9	2.8	-9.8	i
Cc1cc(=O)oc(C)c1C(=O)NCCNC(=O)c1c(C)cc(=O)oc1C	0.5	-4.1	-16.9	·	1.5	8.6	4.4	i
O=C(Nc1cccc(C(F)(F)F)c1)N(Cc1ccc(Cl)cc1)CC(O)C(F)(F)F (configuration not stated)	-10.1	3.7	54.9	·	6.7	-1.7	-28.5	i
CCNc1ncnc2c1cnn2C1CCCO1 (configuration not stated)	·	·	·	74.3*	2.2	4.4	2.2	·
COc1ccccc1N1CCN(Cc2cc(OC)c3c(c2)OCO3)CC1	0.9	7.5	7.9	7.2	-7.6	-0.3	-13.8	i
Nc1ccc(-c2nc3ccc(N)cc3[nH]2)cc1	-13.6	?	9.7	-24.6	11.7	-1.8	·	?
Cc1cc(C)c2c(CC(=O)NCCc3ccccc3)coc2c1	-2.1	8.7	0.6	21.2	3.3	-2.8	3.4	i
CS(=O)(=O)N1CCc2cc(-c3csc(NC(=O)Cc4ccccc4)n3)ccc21	-2.8	19.6	27.7	·	-4.2	-23.9	·	i
CCc1c(N)nc(N)nc1Nc1ccc(C)c(C)c1	·	·	·	-8.1	6.0	-8.9	6.3	·
Cc1nnsc1Sc1ccccn1	9.4	9.1	2.2	1.2	0.5	0.6	·	i
CCSc1nnc(NC(=O)c2ccco2)s1	4.0	3.8	-4.2	·	0.0	0.3	-24.2	i
CC(=O)Nc1cccc(NC(=O)CSc2ncc(C(=O)Nc3ccc(F)cc3)c(=O)n2C)c1	·	·	22.8	-1.7	-0.3	-1.4	4.2	i
CSc1nc(O)cc(=O)n1-c1ccc(F)cc1	-3.9	15.3	-11.3	11.6	-2.3	0.2	-2.2	i
S=C(c1nc2ccccc2[nH]1)N1CCOCC1	0.9	-2.1	-10.6	-37.5	1.3	0.1	-21.7	i
C=CCN1CC2CC3(COc4cc(C)cc(C)c4)C=CC2(O3)C1=O (configuration not stated)	-2.1	-4.0	·	·	5.2	-1.4	25.2	i

3 entries already listed, ordered by SMILES length, high to low:
SMILES	eIF4H inh	PABP FP inh	CSC inhib	Env fusion inh	MT1-MMP act inh	MT1-MMP act inh RFP	Yeast UUG start	Rce1 inh	others
COc1ccccc1N1CCN(Cc2cc(OC)c3c(c2)OCO3)CC1	0.9	7.5	7.9	7.2	-7.6	-0.3	-13.8	i
CCSc1nnc(NC(=O)c2ccco2)s1	4.0	3.8	-4.2	·	0.0	0.3	-24.2	i
Brc1cccc(OCCSc2ncccn2)c1	-1.8	0.7	3.3	0.4	-2.8	-0.9	-4.3	i

Carrying on.
SMILES	eIF4H inh	PABP FP inh	CSC inhib	Env fusion inh	MT1-MMP act inh	MT1-MMP act inh RFP	Yeast UUG start	Rce1 inh	others
O=C(O)C1CCC(C(=O)O)SS1 (configuration not stated)	·	·	·	-13.1	-0.7	3.1	-10.4	·
CC(/C=C/c1ccc2c(c1)OCO2)=N\NC(=O)C(O)c1ccccc1 (configuration not stated)	-2.2	0.8	-16.6	-12.6	-0.8	-1.6	-3.0	i
COc1cc(Cl)cc(/C=C/c2ccc3ccccc3n2)c1OC(C)=O	-4.0	-6.0	0.6	-113.6	-23.6	-5.0	-7.2	i
COc1ccc([N+](=O)[O-])cc1CSc1ccccn1	-0.7	10.8	3.2	26.9	-2.6	3.0	-2.8	+
CCOC(=O)c1cc2c(=O)[nH]c(C(Cl)(Cl)Cl)nc2o1	7.1	-9.8	-11.7	7.4	-0.3	0.6	·	i
COc1ccc(C(=O)Nc2nc3cc4c(cc3s2)OCCO4)c(OC)c1	21.8	3.9	4.0	-104.5	·	·	·	i
CCOC(=O)c1nc(N)sc1C(=O)OCC	2.2	-13.1	-14.9	·	-0.2	3.5	-18.4	i
CC1(C(=O)OCC(=O)NCCNC(=O)COC(=O)C2(C)CC2(Cl)Cl)CC1(Cl)Cl (configuration not stated)	-13.2	-4.4	7.3	6.2	-0.6	-0.6	3.1	i
CC(C)[C@@H](N)C(=O)NC[C@H]1O[C@@H](n2cnc3c(=O)[nH]c(N)nc32)[C@H](O)[C@@H]1O	·	·	·	6.2	0.2	1.0	-1.2	·
O=C(COC(=O)c1cc(=O)c2ccccc2o1)Nc1ccc2ccccc2c1	-3.4	-0.8	10.5	8.5	2.5	-0.3	·	i
C[C@H](CO)N1C[C@H](C)[C@@H](CN(C)Cc2cccc(F)c2)Oc2cc(-c3cccc(C#N)c3)ccc2S1(=O)=O	·	·	·	17.5	0.1	-0.4	-2.9&22.0&10.6	·
O=C(CC1Sc2ncnn2C1=O)Nc1ccc(Cl)cc1 (configuration not stated)	-1.2	-19.6	-7.5	-9.8	·	·	·	i
O=C(CN1CCN(c2ccccc2)CC1)Nc1ccccc1Cl	-2.0	0.9	-0.4	-1.1	-1.7	1.7	-30.7	i
CC1=CCC2C(=O)N(CCc3c[nH]c4ccccc34)C(=O)C2C1 (configuration not stated)	-1.9	1.6	1.2	·	3.0	3.2	-11.1	·
CC(C)C(NS(=O)(=O)c1ccc2c(c1)OCCO2)C(=O)NCCc1ccccn1 (configuration not stated)	-11.2	5.6	-19.9	-17.6	10.1	3.7	-4.8	i
COC(=O)c1ccc2c(=O)n(CCCCCC(=O)O)c(=O)[nH]c2c1	6.6	6.8	2.5	0.0	-0.6	2.9	·	i
O=C(Nc1ccccc1N1CCCC1)c1ccc([N+](=O)[O-])cc1Cl	-4.8	5.7	4.5	6.9	3.0	-1.4	·	i
Cc1cccc(C)c1NC(=O)Cn1c(=O)c(N2CCCCC2)c(N)n(C)c1=O	·	·	-7.1	-19.7	-0.4	-0.7	-2.2	·
O=C(CCN1C(=O)c2cccnc2C1=O)NC1CCCCCC1	-7.3	31.9	-1.4	·	6.4	3.9	-0.2	i
COC(=O)C1(c2ccccc2)NC(c2ccc(O)cc2)C2C(=O)N(c3ccc4c(c3)OCO4)C(=O)C21 (configuration not stated)	-7.9	-11.6	-7.8	-0.9	1.2	3.6	0.8	i
Cn1nnc2cc(NC(=O)NCc3ccc4c(c3)OCO4)ccc21	-10.2	-0.5	-4.2	·	1.6	1.1	-17.3	i
CC1(C)C(=O)Nc2ccccc2N1C(=O)COC(=O)c1cc(S(=O)(=O)N2CCOCC2)ccc1F	61.9	5.6	-1.7	4.2	5.6	0.7	·	i	eIF4H inh retest=11.9;PABP FP inh retest=21.6
O=C(NCCc1ccccc1)c1cccc2c1C(=O)N(C1CCCCC1)C2	·	·	-9.8	-10.3	-7.1	-8.9	-5.0	i
O=S(=O)(NN1CCOCC1)c1ccc(Br)cc1	-10.4	-8.7	-5.2	23.7	0.4	6.0	-0.1	i
Cc1cc(C)c[n+](CC(=O)c2c(C)cc(C)c([N+](=O)[O-])c2C)c1	-5.4	3.1	-2.6	0.0	1.0	3.6	7.4	i

In the list so far, two have a thiophene ring, fused or not:
SMILES	eIF4H inh	PABP FP inh	CSC inhib	Env fusion inh	MT1-MMP act inh	MT1-MMP act inh RFP	Yeast UUG start	Rce1 inh	others
CC1(C)Cc2c(c(N3CCOCC3)nc3sc4c(NCc5ccccc5)nnnc4c23)CS1	-3.2	-8.3	8.0	·	-0.8	-10.7	-0.4	i
O=C(Nc1cccc(-c2nc3ncccc3o2)c1)c1sc2ccccc2c1Cl	-12.1	-43.4	·	9.6	6.9	2.8	-9.8	i

Other compounds.
SMILES	eIF4H inh	PABP FP inh	CSC inhib	Env fusion inh	MT1-MMP act inh	MT1-MMP act inh RFP	Yeast UUG start	Rce1 inh	others
COc1ccc(-n2nnnc2SCC(=O)Nc2ccccc2N2CCOCC2)cc1OC	3.4	11.4	2.9	2.7	0.5	1.2	·	i
Cc1cc(C)nc(N2CCC(C(=O)NCc3ccccc3F)CC2)n1	-9.5	-3.4	-12.8	7.0	-0.5	-1.0	·	i
Cc1ccc(S(=O)(=O)N2[C@@H](c3ccc(C(C)(C)C)cc3)C(C(=O)O)=CC[C@H]2c2ccc(C(C)C)cc2)cc1	·	·	·	15.5	-7.8	-13.8	-17.5	·
CCOc1cc(/C=N/N=C/c2ccc(O)c(OCC)c2)ccc1O	-9.4	1.1	-7.6	12.2	1.1	-1.0	-7.4	i
O=C(NCCN1Cc2ccccc2C1=O)c1cccs1	2.6	-7.0	12.0	·	2.1	5.0	-7.8	i
O=C(Cc1c[nH]c2ccccc12)NCc1cccs1	0.4	2.1	-9.2	17.9	-0.7	-0.8	3.1	i
CCOC(=O)C1=C(Cc2ccc(Cl)cc2)C(=O)c2ccccc2C1=O	-1.1	13.0	55.8	·	-66.5	84.7	-20.6	i
O=[N+]([O-])c1ccc(/C=N/Nc2ncc(Br)cn2)cc1	-2.3	-30.3	-6.8	-2.0	2.6	-0.2	-14.5	i
C=CCSC1=C(C#N)C(c2cc(Br)c(O)c(OC)c2)CC(=O)N1 (configuration not stated)	-2.7	17.1	-2.0	·	17.0	-10.5	2.1	i
O=C(c1ccco1)N1CCN(S(=O)(=O)c2ccc3c(c2)OCCO3)CC1	-2.4	-1.9	-13.6	·	-1.0	-4.6	·	i
O=C(CSc1nc(-c2ccccc2)nc2ccc(F)cc12)Nc1cccc(C(=O)O)c1	-4.3	18.7	-7.5	-3.2	-6.4	-1.2	·	i

Source: PubChem
